Compound activity from PubChem BioAssay.
miR-21 reporter = miR-21 reporter, rising signal. HeLa miR-21 FLuc reporter, luciferase, 48 h. Potency, µM (highest dose often 38.3 µM), for the others: at the highest dose reporter change, positive = more light. 340,000 tested, under 10 active; active = well fitted rising curve with a large enough effect; inconclusive = small, poorly fitted or top-dose-only effect; inactive = no such curve, though single readings can be large or run the other way;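 further: % of control where 0% means no effect; miR-21 action dims this reporter so a rising signal means less miR-21 action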
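HeLa miR-21-FLuc reporter line, endogenous miR-21; 2000 cells/well in DMEM/10% FBS; compound titration up to ~40uM final, 48 h, 37 degree Celsius; luciferase detection reagent, 15 min lysis, CCD luminescence.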
The depositor's hits bear a star; u = inconclusive.

compound | miR-21 reporter
CC(=O)Nc1ccc(NC(=O)C2CCN(c3c(NC(C)=O)c(C)nn3-c3ccccc3)CC2)cc1 | -6.2%
O=C(Cc1ccc(Cl)cc1)Nc1ccc2oc(-c3ccccc3)nc2c1 | -13.3%
Cc1ccc2c(c1)N(C(=O)CCC(=O)NCc1ccccc1Cl)CC(C)O2 (stereo not drawn) | -23.5%
COC(=O)c1ccc(NC(=O)CCc2c(C)nc3c(-c4ccccc4)c(C)nn3c2C)cc1 | 0.6%
CCCc1ccc(OC(C)c2nc(-c3ccc(-n4cccc4)cc3)no2)cc1 (stereo not drawn) | -3.4%
O=C(C1CCCN(S(=O)(=O)c2cccc3nsnc23)C1)N1CCN(c2ccccc2)CC1 (stereo not drawn) | u
CCc1ccccc1NC(=O)Cn1c(=O)n(-c2ccccc2)c(=O)c2oc3ccccc3c21 | -0.5%
CCc1ccccc1NC(=O)N1CCCn2nc(C)cc21 | -0.6%
COc1cccc(C(=O)NC2=NC(c3ccc(N(C)C)cc3)CC(=O)N2)c1 (stereo not drawn) | -5.1%
Cc1ccc(NC(=O)Nc2nnc(SCC(=O)N3CCC(C)CC3)s2)cc1 | 16.1%

Three entries out of the list, arranged by SMILES length, highest first:
compound | miR-21 reporter
COC(=O)c1ccc(NC(=O)CCc2c(C)nc3c(-c4ccccc4)c(C)nn3c2C)cc1 | 0.6%
Cc1ccc(NC(=O)Nc2nnc(SCC(=O)N3CCC(C)CC3)s2)cc1 | 16.1%
O=C(Cc1ccc(Cl)cc1)Nc1ccc2oc(-c3ccccc3)nc2c1 | -13.3%

Next section:
compound | miR-21 reporter
O=S(=O)(c1ccc2[nH]c3c(c2c1)CCCC3)N1CCN(c2cccc(C(F)(F)F)c2)CC1 | 16.9%
Cc1ccc(C)c(S(=O)(=O)c2nnn3c2nc(NCc2cccs2)c2sccc23)c1 | 14.1%
O=C(COCc1cc(-c2cccs2)on1)NCc1ccc(F)cc1 | -6.6%
Cc1cc(N2CCCCC2)nc2ccc(NC(=O)/C=C/c3ccccc3OC(C)C)cc12 | -14.4%
CCOC(=O)c1[nH]c(C)c(CCC(=O)Nc2ccc(Br)c(C)c2)c1C | -9.2%
COc1ccc(-c2noc(CSc3nc(C)cc(=O)[nH]3)n2)cc1OC | -10.9%
CCOc1ccccc1C(=O)N1CC(=O)Nc2ccc(Cl)cc2C1c1ccccc1 (stereo not drawn) | 17.4%
COC(=O)c1cc2oc3ccccc3c2n1Cc1cccc(C)c1 | -9.4%
Cc1cc(Nc2cccc(C(F)(F)F)c2)ncn1 | -1.2%
O=C(NCCn1cc(SCc2ccc(Br)cc2)c2ccccc21)c1cccs1 | -6.9%

Retrieved by compound from the list above:
compound | miR-21 reporter
COC(=O)c1cc2oc3ccccc3c2n1Cc1cccc(C)c1 | -9.4%
Cc1cc(N2CCCCC2)nc2ccc(NC(=O)/C=C/c3ccccc3OC(C)C)cc12 | -14.4%
CCOC(=O)c1[nH]c(C)c(CCC(=O)Nc2ccc(Br)c(C)c2)c1C | -9.2%

Next entries follow.
compound | miR-21 reporter
COc1ccc(NC(=O)CSc2nc(-c3ccco3)cc(C(F)(F)F)n2)c(OC)c1 | 0.0%
COc1ccc(OC)c(NC(=O)Nc2c(C)n(C)n(-c3ccccc3)c2=O)c1 | 1.5%
CCOCCCNC(=O)c1c[nH]c2ccc(S(=O)(=O)Nc3cccc(Cl)c3C)cc2c1=O | 8.9%
COc1ccc(Cl)cc1NC(=O)c1cnc2sc(N3CCOCC3)nn2c1=O | 0.3%
O=C(NCc1ccc(F)cc1)c1ccc(Nc2nc3ccccc3n3nnnc23)cc1 | -7.6%
CCCCNC(=O)c1ccc2c(c1)NC(=O)C(CS(=O)(=O)Cc1cccc(C)c1)N2 (stereo not drawn) | -0.5%
Cc1ccc(CNc2nc(-c3ccco3)nn2S(=O)(=O)c2ccc3ccccc3c2)cc1 | -6.8%
Cc1ccc(NC(=O)C2CCN(S(=O)(=O)c3c(C)noc3C)CC2)cc1 | -8.9%
CC(=O)N1c2ccccc2CC1C(=O)N1CCN(c2ccccc2F)CC1 (stereo not drawn) | -2.1%
CCSc1ncc(Cl)c(C(=O)Nc2ccc(S(=O)(=O)N3CCCCC3)cc2)n1 | u
CCCCN(CC)C(=O)Cn1c(=O)n(-c2ccc(OCC)cc2)c(=O)c2c3c(sc21)CCC3 | 2.8%
Cc1ccc(/C=C/c2onc(C)c2S(=O)(=O)N2CCC(C(=O)NCc3ccc(C)o3)CC2)cc1 | -4.9%
CCOc1ccccc1NC(=O)C(NS(=O)(=O)c1ccc2c(c1)CCC(=O)N2)c1ccccc1 (stereo not drawn) | -1.3%
CCOc1cccc(NC(=O)CSc2ncc(-c3ccc(Cl)cc3)[nH]2)c1 | 8.8%
Cc1cccc(NS(=O)(=O)c2ccc3c(c2)CCN3C(=O)CCC(=O)O)c1C | 2.4%
CCOC(=O)C1CCCN(S(=O)(=O)c2ccc3c(c2)oc(=O)n3C)C1 (stereo not drawn) | -4.4%
Cc1ccc(NC(=O)C2CCN(c3nn4cc(-c5ccc(C)cc5)nc4s3)CC2)cc1 | -18.3%
CCC(=O)N1CCc2cc(S(=O)(=O)CCC(=O)NCc3ccccc3Cl)ccc21 | 0.9%
Cc1cc(C(=O)N2CCN(c3ccccc3F)CC2)c2c(C)nn(-c3ccccc3)c2n1 | 14.1%
Nc1c(-c2nc(-c3ccncc3)no2)nnn1CC(=O)Nc1ccccc1 | -8.4%
CCOC(=O)c1ccc(Nc2nc3ccc(C(=O)c4ccccc4)cc3n3c(C)nnc23)cc1 | 4.9%
Cc1ccc(-n2c3c(c(=O)[nH]c2=O)C(NC(=O)C(C)(C)C)(C(F)(F)F)C(=O)N3)cc1 (stereo not drawn) | 0.7%
COC(=O)c1ccc2c(=O)n(CCCCCC(=O)N3CCN(c4cccc(C)c4C)CC3)c(=O)[nH]c2c1 | -1.0%
Cc1cccc(CC2C(=O)Nc3ccccc32)c1 (stereo not drawn) | 2.9%
CCOc1ccc(CCNC(=O)c2cc3c(=O)oc4ccc(C)cc4c3s2)cc1OCC | -1.0%
Cc1ccc(C(=O)CC2(O)C(=O)N(CCc3ccccc3)c3ccc(Cl)cc32)cc1 (stereo not drawn) | u
CCCCCn1c(=O)[nH]c2cc(C(=O)N3CCN(c4ccc(OC)cc4)CC3)ccc2c1=O | u
COc1ccc(C(=O)NCC2(N3CCN(C)CC3)CCCCC2)cc1 | 1.1%
COc1ccc(CNC(=O)c2ccc(Cn3c(=O)c4cccn4c4cccnc43)cc2)cc1OC | -7.3%
CC(=O)OCC#CCSc1nnc(-c2cccc(Br)c2)o1 | -37.0%
CC1CCN(C(=O)CN2CCSc3ccc(S(=O)(=O)N(C)C)cc32)CC1 | -2.8%
Cc1ccc(C)c(CSc2nnc3[nH]c(=O)cc(-c4ccccc4)n23)c1 | -0.1%
CCOC(=O)c1ccc(N=C2SC(C(=O)Nc3ccccc3)CC(=O)N2C)cc1 (stereo not drawn) | -0.9%
O=C(CSc1nc2cc3ccccc3cc2[nH]1)Nc1cccc(C(F)(F)F)c1 | -3.1%
Cc1ccc(CNC(=O)c2ccc3c(c2)N(Cc2ccccc2Cl)C(=O)CS3)cc1 | 12.0%
O=S(=O)(Nc1ccc(F)cc1F)c1ccc(-n2cccn2)cc1 | 0.8%
CCCCN(C)CCNC(=O)c1ccc(Cn2c(=O)[nH]c3cc(OC)c(OC)cc3c2=O)cc1 | 13.2%
Cc1ccsc1CN(C(=O)c1oc2ccc(Br)cc2c1C)C1CCS(=O)(=O)C1 (stereo not drawn) | 15.4%
COC(=O)c1ccc(NC(=O)CCn2cccn2)cc1 | -17.1%
Cc1cc2nc(-c3ccc(Cl)cc3)cc(C(F)(F)F)n2n1 | -7.3%
CCOc1ccc(CNC(=O)C2Cc3ccccc3N2C(=O)CC)cc1OC (stereo not drawn) | -1.0%
CCc1ccc(NC(=O)CCCc2nc(-c3ccco3)no2)cc1 | 2.4%
CCc1cnc2c(c1SCC(=O)Nc1ccc(C)cc1C)c(=O)n(C)c(=O)n2C | 2.8%
Cc1cccc(CSCc2ccc(C(=O)NCCc3ccccc3)o2)c1 | -9.9%
COc1ccc(N2CCN(C(=O)CSc3c4c(nc5ccc(Cl)cc35)CCCC4)CC2)cc1 | 27.7%
CC(C)(C)OC(=O)N1CCC(c2c(C(=O)Nc3ccc4c(c3)OCCO4)cnn2-c2ccc(F)cc2F)CC1 | -1.3%
O=C(Nc1cc(Cl)cc(Cl)c1)c1ccc(F)c(S(=O)(=O)NC2CCCC2)c1 | 19.7%
Cc1ccc(Cn2c(C)c(CNC3CCCCC3)c(C(=O)O)c2C)cc1 | -1.0%
O=C(NCCc1ccccc1)c1ccc(Cn2c(SCc3ccc(F)cc3)nc3cccnc32)cc1 | -15.0%
O=C(Nc1cccc(C(F)(F)F)c1)c1cnn(-c2cccc(F)c2)c1C1CCNCC1 | 0.1%

More structures.
compound | miR-21 reporter
COc1ccc(Cl)cc1NC(=O)c1sc2nc3n(c(=O)c2c1C)CCC3 | 7.0%
CSc1ccc(-c2nc3cc(C)ccn3c2Nc2ccc(C)cc2)cc1 | -12.4%
CCOC(=O)c1c(NC(=O)c2ccc(C)c(C)c2)sc2c1CCCCC2 | -0.4%
Cc1ccc(NS(=O)(=O)c2ccc3c(c2)CCCN3C(=O)C2CCC2)cc1Cl | 24.4%
CCOC(=O)N1CCc2c(sc3c2c(=O)n(-c2ccccc2C(F)(F)F)c(=O)n3Cc2ccccc2C)C1 | 20.9%
COC(=O)c1scc(-c2ccc(C)cc2)c1S(=O)(=O)Nc1cc(C)c(Cl)cc1OC | -5.7%
Cc1ccc(S(=O)(=O)Nc2c(Cl)c(Cl)c(O)c3ccccc23)cc1 | 18.6%
CCOc1ccc(NC(=O)C2CCN(S(=O)(=O)c3c(C)noc3/C=C/c3c(C)cc(C)cc3C)CC2)cc1 | -2.1%
COC(=O)c1c(SC)nc2ccccc2c1OCc1ccccc1Cl | 2.7%
COc1ccccc1NC(=O)Cn1c(SCC(=O)NCc2ccccc2)nc2ccccc21 | 3.6%
COc1ccc(-c2cc(C(=O)Nc3c(C)nn(Cc4ccc(F)cc4)c3C)no2)cc1OC | 7.5%
Cc1ccc(Cc2nc3ccccc3nc2SCC(=O)N2CCN(c3ccccc3F)CC2)cc1 | -1.9%
COc1ccc(-c2cc(C(F)(F)F)nc(NCc3ccc(Cl)cc3)n2)cc1 | 10.5%
Cc1ccc(-n2c(=O)c3ccc(C(=O)NCc4ccccc4Cl)cc3n(Cc3ccccc3F)c2=O)cc1 | -1.6%
Cc1nc2c(C(=O)NC(C)c3ccccc3)cnn2c(C)c1Cc1ccccc1 (stereo not drawn) | 22.2%
COc1ccc(CCNC(=O)CCCCn2c(=O)c3ccccc3n(Cc3ccccc3C)c2=O)cc1OC | -7.7%
COc1cccc(N2CCN(C(=O)c3cc4c(=O)n(Cc5ccco5)ccc4nc3C)CC2)c1 | -5.5%
CCOc1ccc(NC(=O)c2cc3sc(Cl)cc3n2CC)cc1 | 2.3%
CCCC(=O)Nc1ccc2nc(SCc3ccc(C)cc3)sc2c1 | -9.7%
COc1ccc(CNC(=O)c2nn(-c3ccccc3C)nc2CO)cc1 | -0.5%
COc1ccc(-c2nc3cc(NC(=O)COc4ccccc4C)ccc3o2)cc1 | -48.0%
Cc1cccc(OCCSc2nc3ccc(NC(=O)COc4ccccc4F)cc3s2)c1 | -9.1%
Cc1cccc(NC(=O)Cn2nnc(C(=O)NCc3cccs3)c2N)c1 | 5.2%
COc1ccc(NC(=O)/C(C#N)=C/c2ccc(C)o2)cc1 | -37.0%
COc1ccc(CCCc2nnc(SCC(=O)Nc3cccc(F)c3C)o2)cc1 | -4.8%
CCCn1cc(S(=O)(=O)c2cc(C)ccc2C)c(=O)c2cc(F)c(N3CCN(CC)CC3)cc21 | 4.8%
O=C(NC1CC(=O)N(c2ccc(F)cc2)C1)c1cc2ccccc2o1 (stereo not drawn) | -2.5%
CCN(CC)c1ccc(NC(=O)CN2C(=O)c3cccnc3Oc3ccccc32)c(C)c1 | 6.3%
CSc1ccc(CCNC(=O)c2ccc(-n3c(C)cc4c3CCC(C)C4)cc2)cc1 (stereo not drawn) | -1.0%
CC(=O)Nc1ccc(NC(=O)c2ccc3c(c2)N(Cc2cccc(Cl)c2)C(=O)c2ccccc2S3(=O)=O)cc1 | -5.7%
Cc1ccc(C)c(Nc2nn3c(=O)c4ccc(C(=O)NCc5ccccc5)cc4nc3s2)c1 | 8.0%
CC1=C(C(=O)OC2CCCCCC2)C(c2cccc(Cl)c2)CC(=O)N1 (stereo not drawn) | 19.0%
O=C(NCc1ccco1)c1ccc2c(c1)N(Cc1ccccc1)C(=O)c1ccccc1S2(=O)=O | -1.6%
CCC(Sc1nnc2c(n1)[nH]c1ccccc12)C(=O)Nc1ccccc1OC (stereo not drawn) | -29.8%
COc1ccc(N2CCN(C(=O)CSc3n[nH]c(-c4ccccc4Cl)n3)CC2)cc1 | -6.6%
Cc1ccc(NC(=O)Nc2nc3c(s2)CCCCCC3)cc1C | -30.7%
CC(=O)N1c2ccccc2CC1C(=O)N1CCN(c2ccccc2)CC1 (stereo not drawn) | -1.6%
O=C(Cn1c(-c2cccs2)cc2cc(Cl)ccc21)NCc1ccccc1 | 0.3%
COc1ccc(-c2nc(CSCC(=O)N3CCN(c4cccc(C)c4C)CC3)c(C)o2)cc1OC | 28.6%
Cc1cccc(CNC(=O)c2ccc(-c3nc(CS(=O)(=O)c4ccccc4)c(C)o3)cc2)c1 | -8.2%
O=C(c1cccs1)N(Cc1cccnc1)c1nc2ccc(F)cc2s1 | -1.5%

Some of the compounds tested, so the mix of outcomes need not match the whole.
